StopGo FLuc: lowers the firefly signal of an FMDV 2A StopGo reporter; HEK cells with a luciferase reporter of 2A StopGo recoding; Potency, µM (series often up to 57.5 µM), inactives show at the top dose signal change, negative = less light; actives 0.23% (n = 120,000); active = well fitted falling curve with a large enough effect; inconclusive = small, poorly fitted or top-dose-only effect; inactive = no such curve, though single readings can be large or run the other way; also: nearly all actives have a fitted effect of over 60% in size; overnight with compound
StopGo RLuc: FMDV 2A StopGo reporter, Renilla signal; HEK cells with a luciferase reporter of 2A StopGo recoding; Potency, µM (highest dose often 57.5 µM), for the others: at the highest dose signal change, negative = less light; actives 0.32% (n = 120,000); AID 1745857; active means well fitted falling curve with a large enough effect; inconclusive means small, poorly fitted or top-dose-only effect; inactive means no such curve, though single readings can be large or run the other way; also: nearly all actives have a fitted effect of over 55% in size; overnight with compound
Numbers without * were called inactive; ? = inconclusive; & = joins results of further samples; [ ] = remark or other dose. % is scaled to controls: 0 for no effect and ±100 for the full control effect; potency is read from the fitted curve at half-maximal effect.

SMILES	StopGo FLuc	StopGo RLuc
Cc1cc2oc(C(=O)N(Cc3ccccc3)C3CCS(=O)(=O)C3)cc(=O)c2cc1C (stereo not given)	-15%&-16%	-9%&-3%
N#CC(C#N)=Cc1cccn1-c1ccc(Br)cc1	15%	11%
COCCNc1ncnc2c1c(-c1ccccc1)cn2-c1ccc(C)c(Cl)c1	3%	10%
COc1cc(C)cc2oc(=O)c(CC(=O)NCCc3ccc(Cl)cc3)c(C)c12	-8%	11%
CCC1CCc2nc3sc(C(=O)Nc4ccc(F)c(F)c4)c(N)c3cc2C1 (stereo not given)	7%	-7%
Cc1ccc2[nH]c3c(=O)n(CC(=O)N4CCCC(C)C4)ncc3c2c1 (stereo not given)	-9%	-3%
COc1ccc2c(c1)c1c(c(=O)n(-c3cccc(C)c3)c(=O)n1Cc1cccc(Cl)c1)n2C	1%	-8%
O=C(CNc1cc(Cl)ccc1N1CCOCC1)Nc1ccccc1C(=O)c1ccccc1	-18%	-8%
O=C(Cc1coc(-c2ccccc2)n1)N1CCCC1CN1CCCC1 (stereo not given)	19%	-15%
COc1ccc(OC)c(-c2cc3ccc(OC)cc3oc2=O)c1	115%[activator]	126%[activator]
CCOC(=O)c1cc(-c2ccco2)nc2c1c(C)nn2-c1cccc(Cl)c1	-9%	?
Cc1ccccc1CNC(=O)C(C)N(c1ccccc1)S(C)(=O)=O (stereo not given)	-9%	7%
CCc1ccccc1Nc1nc2ccccc2c2nncn12	6%	-7%
CCCNC(=O)C1CCC(Cn2c(=O)c3sccc3n(Cc3ccccc3F)c2=O)CC1 (stereo not given)	4%	2%
CCCCNC(=O)C1CCN(S(=O)(=O)c2ccc3c(ccn3CC)c2)CC1	?	?
CCN(CC(=O)Nc1c(F)cccc1F)Cc1ncc(-c2ccc(Cl)cc2)o1	-4%	-9%
Cc1cc(N2CCCCC2)nc2ccc(NC(=O)c3cccc(Cl)c3)cc12	20%	14%
CC(C)c1ccccc1NC(=O)CSC1=Nc2ccccc2C2CC=NN12 (stereo not given)	-2%	-1%
COc1ccc(C)cc1CN(C)C(=O)Cc1c[nH]c2ccccc12	2%	198%[activator]
O=C(NC1CC1)C(Sc1c(Cl)cccc1Cl)c1ccccc1 (stereo not given)	22%	29%
O=C(CSc1nc2ccccc2nc1N1CCCCC1)Nc1ccc(F)cc1	20%	38%[activator]
N#Cc1nc(-c2ccco2)oc1N1CCC(C(=O)Nc2ccccc2N2CCCC2=O)CC1	7%	6%
CCc1cnc2c(c1SCc1cc(OC)cc(OC)c1)c(=O)n(C)c(=O)n2C	3%	-3%
O=C(NCc1ccc(F)cc1)C1CCCN(C(=O)c2ccc3cc[nH]c3c2)C1 (stereo not given)	-3%	25%
CCCC(=O)n1ccn(S(=O)(=O)c2ccc(C)cc2)c1=O	-1%	3%
CN(C)C(=O)c1ccc(-c2ccc(Br)cc2)s1	30%	0%
COc1ccc(CNC(=O)c2ccc(CS(=O)c3ccc(C)cc3)o2)cc1OC (stereo not given)	?	?
Cc1cccc(C(=O)NCCc2sc(-c3ccccc3)nc2C)c1	61%[activator]	22%
CCOC(=O)c1cccc(NC(=O)c2nn(-c3ccc(OC)cc3)c(=O)c3c2c2ccccc2n3C)c1	33%	18%
CCOc1ccc(C2CC(=O)Nc3c2c(=O)nc(SCc2ccccc2C)n3C)cc1OC (stereo not given)	-9%	-12%
COc1ccc(CNC(=O)C(C)OC(=O)c2ccc3c(c2)NC(=O)CS3)cc1OC (stereo not given)	25µM*	?
Cc1ccc(N2C(=O)CSC23C(=O)N(CC(=O)NCCc2ccccc2)c2ccccc23)cc1 (stereo not given)	0%	-1%
O=C(CC1CCCCC1)Nc1nc(-c2c[nH]c3ccccc23)cs1	62%[activator]	26%
CC(C)C(=O)N/N=C/c1cccs1	2%	2%
O=C(c1ccccc1-c1ncc(-c2ccccc2F)o1)N1CCCC1	0%	3%
Cn1c(=O)c2c(nc(NCCc3ccc(F)cc3)n2Cc2ccc(Cl)cc2)n(C)c1=O	-3%	-10%

One compound at a time, from the list above. Order of screens: StopGo FLuc	StopGo RLuc
Cc1cccc(C(=O)NCCc2sc(-c3ccccc3)nc2C)c1 is listed with 61%[activator]	22%
CCOC(=O)c1cccc(NC(=O)c2nn(-c3ccc(OC)cc3)c(=O)c3c2c2ccccc2n3C)c1 is listed with 33%	18%
COCCNc1ncnc2c1c(-c1ccccc1)cn2-c1ccc(C)c(Cl)c1 is listed with 3%	10%
Cc1cc(N2CCCCC2)nc2ccc(NC(=O)c3cccc(Cl)c3)cc12 is listed with 20%	14%
COc1cc(C)cc2oc(=O)c(CC(=O)NCCc3ccc(Cl)cc3)c(C)c12 is listed with -8%	11%

Additional entries follow.
SMILES	StopGo FLuc	StopGo RLuc
O=C(NCCCCc1ccccc1)NCc1ccc(CN2CCCC2)cc1	3%	-9%
CS(=O)(=O)c1cccc(C(=O)N2CCN(CCc3ccccc3)CC2)c1	-3%	-9%
Cc1ccccc1NC(=O)CSc1cn(CC(=O)N2CCCC2)c2ccccc12	4%	61%[activator]
O=C(NCc1cccc(Cl)c1)C1CCCN(c2nn3cc(-c4ccc(F)cc4)nc3s2)C1 (stereo not given)	?	-22%
C=CCNC(=S)NNC(=O)C1CC1	-10%	1%
CCc1ccc(N2C(=O)N(CC(=O)NC(C)CC)c3ccccc3S2(=O)=O)cc1 (stereo not given)	-12%	-8%
CC(C)c1ccc(S(=O)(=O)c2nnn3c2nc(N2CCN(C)CC2)c2sccc23)cc1	-4%	0%
O=C(c1ccncc1)N1N=C(C(F)(F)F)CC1(O)C(F)(F)F (stereo not given)	-11%	-13%
COc1ccc2cc(C(C)C(=O)NC3CC3)ccc2c1 (stereo not given)	26%	16%
CCOC(=O)c1c(C)[nH]c(C)c1S(=O)(=O)N1CCCC(C(=O)N2CCN(c3ccccc3F)CC2)C1 (stereo not given)	-19%	7%
Cc1ccc(NC(=O)c2oc3ccccc3c2C)cc1	186%[activator]	-1%
CCOC(=O)CN(CC1CC1)C(=O)Cc1ccc(C)s1	1%	-2%
CCOc1ccccc1Oc1c(C)oc2cc(OS(C)(=O)=O)ccc2c1=O	?	?
CC(C)(C)c1ccc(C(=O)NCCCCCCNC(=O)c2ccc(C(C)(C)C)cc2)cc1	-4%	9%
Cc1ccc2sc(N(Cc3cccnc3)C(=O)CCOc3ccccc3)nc2c1C	-8%	-9%
CC(=O)N1CCc2cc(C(=O)C(C)n3nnc(-c4ccccc4)n3)ccc21 (stereo not given)	?	?
O=C(c1cc(C2CC2)nn1-c1ccccc1)N1CCN(Cc2ccncc2)CC1	7%	-8%
CCOC(=O)NC(CNC(=O)c1ccc(C)cc1)CC(C)C (stereo not given)	-2%	-1%
Clc1ccccc1CSc1nnc2c3ccccc3n(CCc3ccccc3)c2n1	4%	-6%
COc1ccc(-c2nc(C#N)c(N3CCC(C(N)=O)CC3)o2)cc1OC	21%	35%
Cc1c(C)c2cc(Cl)c(OC(C)C(=O)NCCN3CCOCC3)cc2oc1=O (stereo not given)	7%	1%
COc1ccc(C(=O)N(Cc2sccc2C)C2CCS(=O)(=O)C2)cc1 (stereo not given)	11%	1%
CCOC(=O)C1CCCN(CC(=O)Nc2cc(C)c3c(=O)oc4ccccc4c3n2)C1 (stereo not given)	?	-14%
CCC(C)NC(=O)c1ccc2nc(Cc3ccc(OC)cc3)oc2c1 (stereo not given)	-9%	-4%
COc1ccc(Cl)cc1NC(=O)CSc1nc(-c2ccccc2)c2ccccc2n1	-3%	-4%
CCc1ccc(C2CC(=O)Oc3c2c(=O)n(C)c2ccccc32)cc1 (stereo not given)	12%	25%
CC(C)CCNC(=O)Nc1c(NC2CCCC2)c2ccccc2oc1=O	-12%	-8%
CCCc1cc(=O)oc2cc(OCC(=O)OC)ccc12	2%	-12%
COc1cccc2cc(-c3cc(=O)oc4ccc(OS(C)(=O)=O)cc34)oc12	0%	15%
CNC(=O)C1CCN(CC(=O)N(C)CC(=O)Nc2ccc(Cl)c(C(F)(F)F)c2)CC1	-14%	-19%
O=C1CCC/C(=N/NC(=O)c2cc(-c3ccc(Cl)cc3)nc3ccccc23)C1	22%	15%
CC(C)c1ccc(NC(=O)c2ccc(F)c(S(=O)(=O)N3CCN(c4ccccc4F)CC3)c2)cc1	-11%	-12%
COc1cccc(CN2C(=O)c3ccccc3C2C(=O)NCCc2ccc(OC)c(OC)c2)c1 (stereo not given)	-10%	53%[activator]
Cc1ccc(OCc2ccc(-c3nc(C#N)c(NCc4cccnc4)o3)o2)cc1	-21%	-21%
Cc1ccc(NC(=O)NCCc2c(C)nn(C)c2C)cc1Cl	164%[activator]	26%
CCCCC1CCC(C(=O)N2CC(=O)Nc3ccc(Br)cc3C2c2ccc(F)cc2)CC1 (stereo not given)	-4%	-7%
O=S(=O)(c1ccc2c(c1)OCCO2)c1nc(-c2ccco2)oc1NCCCn1ccnc1	19%	107%[activator]
CC1CCc2c(sc(NC(=O)CN3CCNC(=O)C3)c2C#N)C1 (stereo not given)	64%[activator]	-3%
CCOc1ccc(NC(=O)CCc2ncc(-c3ccccc3F)o2)cc1	4%	-13%
Fc1ccc(-c2nnn(Cc3cc4c(cc3Br)OCO4)n2)cc1	93%[activator]	40%[activator]
CCC(=O)Nc1cc(C)c(O)c(-c2nc3cc(CC)ccc3o2)c1	-4%	-13%
Cc1c2cnn(-c3ccccc3)c(=O)c2c(C)n1CCCC(=O)Nc1cc(F)ccc1F	-4%	-23%
CCc1ccc(S(=O)(=O)c2nnn3c2nc(Nc2cccc(C)c2C)c2sccc23)cc1	-30%	47%[activator]
O=C(OCc1nc2ccccc2o1)c1cc(F)cc(F)c1	-1%	-13%
CCOC(=O)c1cccc(Nc2nc(C(=O)OCC)nc3ccccc23)c1	-2%	5%
CC(C)N1CCc2c(C#N)c(NCc3cccnc3)n3cnnc3c2C1	-11%	-10%
Cc1ccc(C(=O)OCC(=O)c2ccc(-c3ccccc3)cc2)s1	49%[activator]	5%
COc1ccc(CC(=O)Nc2c(C(=O)N3CCC(N4CCCCC4)CC3)oc3ccccc23)cc1	-16%	3%
CSc1cccc(NC(=O)C2CCN(S(=O)(=O)c3ccc4[nH]c(=O)ccc4c3)CC2)c1	16%	15%
Cc1ncc(CO)c2c1Oc1nc(-c3ccccc3Cl)nc(SCc3ccccc3F)c1C2	-20%	0%
COc1cc(OC)c(NC(=O)c2cc(C)nc3c2c(C)nn3-c2ccc(C)cc2)cc1Cl	0%	63%[activator]
CC1(C(=O)NCc2ccccc2)Cn2nc(-c3ccccc3)cc2C(=O)N1Cc1ccco1 (stereo not given)	35%[activator]	100%[activator]
CC(C)NC(=S)N/N=C1\CCc2ccccc21	268%[activator]	10%
CCc1c(C)sc2c1CCN(C(=O)Nc1ccccc1Cl)C2c1ccc(OC)cc1 (stereo not given)	-17%	7%
COc1cccc(C(=O)Nc2c3c(nn2-c2ccc(C)cc2C)CS(=O)(=O)C3)c1OC	4%	16%
COc1ccc(CCNC(=O)c2cc(Nc3ccccc3)nc3ccccc23)cc1OC	-3%	4%
N#Cc1nc(-c2ccc(S(=O)(=O)N3CCOCC3)cc2)oc1NCCCn1ccnc1	-2%	-3%
CC(=O)N1CCN(c2csc3ccc(F)cc3c2=O)CC1	23%	74%[activator]
CCCCn1c(NCc2ccc(N(C)C)cc2)nc2ccccc21	-27%	?
COCCNc1oc(COc2ccccc2C)nc1C#N	74%[activator]	3%

The closing six compounds of the section before lead into the next.
SMILES	StopGo FLuc	StopGo RLuc
COc1cccc(C(=O)Nc2c3c(nn2-c2ccc(C)cc2C)CS(=O)(=O)C3)c1OC	4%	16%
COc1ccc(CCNC(=O)c2cc(Nc3ccccc3)nc3ccccc23)cc1OC	-3%	4%
N#Cc1nc(-c2ccc(S(=O)(=O)N3CCOCC3)cc2)oc1NCCCn1ccnc1	-2%	-3%
CC(=O)N1CCN(c2csc3ccc(F)cc3c2=O)CC1	23%	74%[activator]
CCCCn1c(NCc2ccc(N(C)C)cc2)nc2ccccc21	-27%	?
COCCNc1oc(COc2ccccc2C)nc1C#N	74%[activator]	3%
Cc1ccc(CN(C)C(=O)CS(=O)(=O)Cc2nc(-c3ccccc3)oc2C)cc1	0%	0%
Cc1ccc(SCCNC(=O)CC2C=CCC2)cc1C (stereo not given)	0%	24%
O=C(O)CN(Cc1ccc(Br)cc1)S(=O)(=O)c1ccc(Cl)cc1	5%	11%
Fc1ccc(-c2ccc(CNCC3CCNCC3)o2)cc1	-27%	-28%
COc1cc(-c2cc(OC)c3c(C)oc(C)c3c(=O)c2)ccc1OC(=O)c1ccccc1Cl	-12%	-13%
N#Cc1cccc(NC(=O)CCc2ncc(-c3ccc(Cl)cc3)o2)c1	20%	9%
Cc1ccc(-c2cc(Nc3ccc(C(=O)N(C)Cc4ccccc4)cc3)ncn2)cc1	19%	8%
COc1ccc(S(=O)(=O)Nc2ccc(Nc3nc(C)cc(N(C)C)n3)cc2)cc1C	?	0%
Cc1nc2ccn(Cc3ccco3)c(=O)c2cc1C(=O)N1CCN(c2ccccc2)CC1	-22%	-10%
O=C(Nc1cc(Cl)ccc1Cl)C1=C(c2ccccc2)S(=O)(=O)CCO1	-17%	?
COc1ccc(NC(=O)C(NC(=O)Cc2cccs2)c2ccc(OC)cc2)cc1 (stereo not given)	5%	74%[activator]
